Screening results: PubChem, Fisher Drug Discovery Resource Center
NPYLR7 agonist – activates Aedes aegypti NPYLR7 receptor. HEK293T NPYLR7/Galpha15, GCaMP6s calcium fluorescence. activation, % at 10 µM. hit rate 0.15% among 270,000; in the data active means activation above about 40%;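 further: 0% = vehicle and 100% = reference agonist at the receptor; some compounds past the cut are filed as inactive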
NPYLR7 agonist max-min – recorded beside NPYLR7 agonist, whose call it bears; activation, %; measured here: Max-Min RFU normalised activation; some inactives read as strong as hits;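 span of the calcium signal over five minutes; 0% = vehicle and 100% = native peptide agonist; compound fluorescence can raise it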
* marks the source's active call; other numbers are inactive results; & = joins results of further samples. This is a subset; count on the stated rates, not on these rows.

SMILES	NPYLR7 agonist	NPYLR7 agonist max-min
CC(C)C(C)(C#N)NC(=O)CSc1ncnc2sc3c(c12)CCC3 (stereo not given)	5	3
S=c1nc(-c2ccc(Cl)cc2Cl)[nH][nH]1	3	1
O=C(NC(c1ccc(Cl)cc1)c1ccsc1)C1CCN(CCOc2ccc(Cl)cc2)CC1 (stereo not given)	6	1
Cc1ccccc1OCCCN(C)c1nc(-c2cccnc2)nc2c1CNC2	8	4
O=C(NCCCN1CCOCC1)C(C1CCCC1)N1CCN(C(=O)c2ccc3c(c2)OCO3)CC1 (stereo not given)	-2	6
COc1cc(F)ccc1S(=O)(=O)N1CCN(C23CC4CC(CC(C4)C2)C3)CC1	-5	-7
O=C(c1cc(S(=O)(=O)N2CCC(OCCN3CCCCC3)C2)c[nH]1)N1CCCC1 (stereo not given)	0	-10
COC(=O)c1ccc(C(=O)N2CCNC(=O)C2Cc2ccccc2)cc1 (stereo not given)	0	-4
Cc1cc(C2CCC2)nc(N2CC(N3CCCCC3C)C2)n1 (stereo not given)	1	0
Cc1csc(NC(=O)C2(C)CCN2C(=O)C(C)C)c1C#N (stereo not given)	8	4
Cc1cc(C)c(S(=O)(=O)Nc2ccc(Cl)cc2)c(C)c1	0	-1
COCCCN(CC(=O)N(Cc1ccc(F)cc1)Cc1sccc1C)C(=O)c1cc(C(F)(F)F)cc(C(F)(F)F)c1	-2	7
O=S1(=O)CCN2C(c3ccc(Cl)cc3Cl)=CSC2=N1	0	0
COc1ccc(CN2CC[C@@H](N)[C@@H](OC)C2)cc1Cn1cncn1	-6	-8
CCn1cncc1Cn1ccnc1-c1ccc(O)c(OC)c1	11	21
COc1ccc(-c2cc(C(=O)N3CCN(C(c4ccccc4)c4ccccc4)CC3)n(-c3cc(C)ccc3C)n2)c(OC)c1	-3	4
Cc1ccc(-c2cc(C(=O)NC3CCCc4nc(N(C)C)ncc43)n[nH]2)o1 (stereo not given)	0	-3
c1ccc(Oc2ccc3c(C4CC4)noc3n2)cc1	4	1
O=C(NCc1cnn2ccccc12)C1CCOC1 (stereo not given)	16	4
COc1ccc(-c2nc(SC(C)C(=O)N3CC(=O)Nc4cc(C(F)(F)F)ccc43)n[nH]2)cc1 (stereo not given)	0	3

Reprinted from the part before: 2 compounds; new compounds follow.
SMILES	NPYLR7 agonist	NPYLR7 agonist max-min
O=C(NCc1cnn2ccccc12)C1CCOC1 (stereo not given)	16	4
COc1ccc(-c2nc(SC(C)C(=O)N3CC(=O)Nc4cc(C(F)(F)F)ccc43)n[nH]2)cc1 (stereo not given)	0	3
Cc1nc2cc(C(F)(F)F)ccc2n1C1CCN(C(=O)c2cccnc2)CC1	4	0
CCCC(=O)NC(=S)Nc1cccc(Cl)c1N1CCCCC1	7	3
N#C/C(=C\c1cccn1-c1ccc(C(=O)O)cc1)c1ccccc1	-5	-5
O=C(CN1CCN(C(=O)c2cccs2)CC1)Nc1c(F)cccc1F	6	3
O=c1cc(Cc2ccccc2)nc2c(-c3ccccc3)c(C(F)(F)F)[nH]n12	-11	-18
CCCc1cc(=O)[nH]c2nnc(SCC#N)n12	-10	-8
O=S(=O)(Nc1cccc(Cl)c1)c1cccc2nsnc12	18	13
CCc1nccn1CC(=O)NCc1c(C)noc1C	-1	20
COCc1nc(C)nc(N2CCN(C(=O)C(C)(C)CCl)CC2)c1Cc1ccc(OC)cc1	11	18
Cc1nc(CS(C)(=O)=O)sc1C(=O)Nc1ccccc1	-22	-23
O=C(c1c(F)c(F)cc(F)c1F)N1CCC(CCc2ccccc2)CC1	0	4
C=CCOC(=O)C1=C(C)Nc2nc(SCC=C)[nH]c(=O)c2C1c1ccc(C(C)C)cc1 (stereo not given)	2	7
O=C(NCc1ccc(Cl)s1)c1cccnc1N1CCCC1	9	8
Cc1cc(Oc2ccc(F)cc2)nc(SCc2ccccc2C)n1	17	10
CCC(C)NC(=O)c1sc2nc(-c3ccc(OC)cc3)cn2c1C (stereo not given)	0	-2
O=C(NCC1(c2ccc(F)cc2)CCC1)N1CCC2(C1)OCCO2	3	5
COc1ccc(-n2c(SCC(O)COc3ccc(C)cc3C)nnc2-c2ccncc2)cc1 (stereo not given)	-4	-3
Cn1nc(C(=O)N2CCCC(CNC(=O)c3cccc4ccccc34)C2)ccc1=O (stereo not given)	2	-9
CN(Cc1nccn1C)C(=O)CC1C(=O)NCCN1CC(c1ccccc1)c1ccccc1 (stereo not given)	4	4
COc1cc2nc(N(C)C)nc(N)c2cc1OC	3	0
COc1c(F)ccc(C(=O)N2CCc3c(ncnc3N3CCOCC3)C2)c1F	4	1
COc1ccccc1N=Nc1c(O)[nH]c2ccc(Br)cc12	-6	-10
O=C(Cn1c(=O)oc2ccccc21)NCc1nncn1C1CCCCC1	5	5
COC(=O)c1c(C)[nH]c(C(=O)C(C)OC(=O)C2CC3CCCC(C2)C3=O)c1C (stereo not given)	22	16
Cc1ccc2c(c1)oc(=O)n2C1CCN(C(=O)c2ccnc(Cl)c2)CC1	5	2
COc1ccc(C#N)c(NC(=O)CCc2ccc(C)o2)c1	0	0
CC1(C)C2CCC1(C)C(O)C2C(=O)O (stereo not given)	-3	2
CSc1nnc(SCc2ccc(C(=O)N3C4CCC3CC(Oc3ccc(F)cc3F)C4)cc2)s1 (stereo not given)	3	-1
CN(C)C(=O)C1CN(C(=O)/C=C/c2ccc(C#N)cc2)c2ccccc2O1 (stereo not given)	5	0
CCOCCn1c(=O)c2c(nc3n2CCN3c2cc(C)ccc2C)n(C)c1=O	-8	-10
COc1cccc2cc(-c3nc4ccccc4[nH]3)c(=Nc3ccccc3Cl)oc12	-2	-4
Cc1ccc(S(=O)(=O)N(C)c2ccc(C(N)=O)cc2)cc1	1	-1
COc1ccc(C2=NOC(CN(Cc3cccc(F)c3)C(=O)c3ccccc3F)C2)cc1 (stereo not given)	22	24
Cc1cc(NC(=O)COC(=O)c2cc(C(C)C)nc3ccccc23)no1	2	-7
Cc1nn(CCNC(=O)[C@@H]2C[C@@H](NC(=O)c3ccccc3)CN2)c(C)c1Cl	-2	3
CCCNC(=O)C(NC(=O)CC(C)C)C1CCN(C(=O)c2ccco2)CC1 (stereo not given)	10	13
N#Cc1c(NC(=O)c2cc(-c3ccccc3)nc3ccccc23)sc2c1CCCC2	-3	-6
C=CCN(Cc1ccc(F)cc1)C(=O)Cc1ccc2nc(C)[nH]c2c1	14	2
O=C(CSc1nc2ccccc2c(=O)[nH]1)c1ccccc1	4	2
CCCN1C(=O)C(=Cc2ccc(OC)cc2)SC1=S	9	12
Cc1cc(NCC2CCCO2)n2c(nc3ccccc32)c1C#N (stereo not given)	8	2
CC(C)COC(=O)N1CCN(C(=O)CNC(=O)c2ccsc2)CC1	6	7
COCCN1CCC(Cn2ccnc2-c2nccn2C)C1 (stereo not given)	3	3
Cn1cc(NC(=O)NCCSc2c[nH]c3ccccc23)c2ccccc21	1	-4
CCc1nc2ccc(C(=O)N3CCN(C(=O)c4ccco4)CC3)cn2c1N(C)C(=O)c1cccc(OC)c1	2	22
O=C1NCCNC12CCN(C1CCN(c3ccc4c(c3)OCO4)CC1)CC2	4	5
O=C(NCc1ccc2c(c1)OCO2)c1occc1COc1ccccc1	-6	-10
CCCc1nc(C)c(CN)s1	-1	-4
CCc1cccc2c1NC(=O)C21OCCO1	4	3
CN(CC(=O)Nc1ccc(Cl)c(Cl)c1)C(=O)c1cccc(N2CCCC2=O)c1	2	1
COc1ccc(C(=O)N2CCC(C(N)=O)CC2)cc1S(=O)(=O)Nc1ccc(C)cc1	-2	1
O=C1NC(=Nc2ccccc2Cl)S/C1=C/c1ccc(I)cc1	-6	-10
COc1ccc(OC)c2sc(N(Cc3cccnc3)C(=O)CCc3ccccc3)nc12	-7	-8
O=C(Nc1ccc(F)cc1F)C(C1CCCC1)N1CCN(C(=O)c2ccco2)CC1 (stereo not given)	8	7
O=C(Cn1c(-c2ccccc2Cl)csc1=O)NC1CCCC1	6	3
CCc1c(C)nn(-c2ccc(C(=O)NCCCN3CCOCC3)cc2)c1C	-9	-14
CCNC(=O)c1cccc(NC(=O)/C=C/c2ccccc2F)c1	-1	-3
CCn1cc(CNC(=S)Nc2cccc3ccccc23)cn1	0	0
Cc1cc(NC(=O)COc2ccc(C#N)cc2)no1	4	-3
CCn1c(C2CCN(S(=O)(=O)c3cccc(OC)c3)CC2)nn(C)c1=O	9	-2

23 compounds already listed, sorted by molar mass, largest number first:
SMILES	NPYLR7 agonist	NPYLR7 agonist max-min
CCc1nc2ccc(C(=O)N3CCN(C(=O)c4ccco4)CC3)cn2c1N(C)C(=O)c1cccc(OC)c1	2	22
O=C1NC(=Nc2ccccc2Cl)S/C1=C/c1ccc(I)cc1	-6	-10
COc1ccc(OC)c2sc(N(Cc3cccnc3)C(=O)CCc3ccccc3)nc12	-7	-8
COc1ccc(C(=O)N2CCC(C(N)=O)CC2)cc1S(=O)(=O)Nc1ccc(C)cc1	-2	1
CN(CC(=O)Nc1ccc(Cl)c(Cl)c1)C(=O)c1cccc(N2CCCC2=O)c1	2	1
O=C(Nc1ccc(F)cc1F)C(C1CCCC1)N1CCN(C(=O)c2ccco2)CC1 (stereo not given)	8	7
N#Cc1c(NC(=O)c2cc(-c3ccccc3)nc3ccccc23)sc2c1CCCC2	-3	-6
Cc1nn(CCNC(=O)[C@@H]2C[C@@H](NC(=O)c3ccccc3)CN2)c(C)c1Cl	-2	3
CCn1c(C2CCN(S(=O)(=O)c3cccc(OC)c3)CC2)nn(C)c1=O	9	-2
CCCNC(=O)C(NC(=O)CC(C)C)C1CCN(C(=O)c2ccco2)CC1 (stereo not given)	10	13
O=C1NCCNC12CCN(C1CCN(c3ccc4c(c3)OCO4)CC1)CC2	4	5
CCc1c(C)nn(-c2ccc(C(=O)NCCCN3CCOCC3)cc2)c1C	-9	-14
Cn1cc(NC(=O)NCCSc2c[nH]c3ccccc23)c2ccccc21	1	-4
CC(C)COC(=O)N1CCN(C(=O)CNC(=O)c2ccsc2)CC1	6	7
O=C(NCc1ccc2c(c1)OCO2)c1occc1COc1ccccc1	-6	-10
O=C(Cn1c(-c2ccccc2Cl)csc1=O)NC1CCCC1	6	3
CCn1cc(CNC(=S)Nc2cccc3ccccc23)cn1	0	0
Cc1cc(NCC2CCCO2)n2c(nc3ccccc32)c1C#N (stereo not given)	8	2
CCCN1C(=O)C(=Cc2ccc(OC)cc2)SC1=S	9	12
COCCN1CCC(Cn2ccnc2-c2nccn2C)C1 (stereo not given)	3	3
Cc1cc(NC(=O)COc2ccc(C#N)cc2)no1	4	-3
CCc1cccc2c1NC(=O)C21OCCO1	4	3
CCCc1nc(C)c(CN)s1	-1	-4

New compounds follow.
SMILES	NPYLR7 agonist	NPYLR7 agonist max-min
O=C(Cn1cnc2sc3c(c2c1=O)CCC3)c1ccc(Cl)s1	10	8
Cc1cccc(OCC(=O)NCCOc2ccc3nnc(-c4ccccc4)n3n2)c1	-4	-4
CC(C)NC(=O)N1CCN(S(=O)(=O)c2ccccc2Cl)CC1	1	2
C=c1ccccc1=c1[nH]/c(=C\c2ccc(OC)c(OC(F)F)c2)c(=O)o1	2	2
COC(=O)c1ccccc1NCc1cc(=O)oc2cc(O)c(O)cc12	5	4
O=C(NCC1(c2ccccc2)CCOCC1)c1cc(C2CC2)[nH]n1	10	7
Cc1nccn1CCC1CCN(C(=O)c2cccc(C3CCNC3)c2)CC1 (stereo not given)	-1	-5
Cn1cccc1-c1cc(C(=O)NCCc2ccc(Cl)cc2Cl)n(-c2ccc(Cl)c(Cl)c2)n1	0	11
CCC(C)(C)C1CCC(NC(=O)COc2ccc(C(=O)O)cc2OC)CC1 (stereo not given)	2	3
CCCCCCn1c(=O)c2c(nc3n2CCN3c2ccccc2)n(C)c1=O	22	26
O=C(CSc1nnc2ccc(-c3cccc([N+](=O)[O-])c3)nn12)c1cccs1	-10	-3
COC(=O)c1ccc(C(c2c(O)cc(C)[nH]c2=O)c2c(O)cc(C)[nH]c2=O)cc1	2	5
COC(=O)C1=C(C)N(C)C(C)=C(C(=O)OC)C1c1cccc(C)c1	8	4
CCc1nc2n(n1)C(=O)C(C(c1ccccc1Cl)N1CCCCC1)S2 (stereo not given)	-1	-1
CC1=CC[C@@H]2CN(C(=O)c3nc(=O)[nH]c4ccccc34)C[C@@H]2C1	7	4
CN(CCc1ccccc1)Cc1ccc2n1CCCN=C2C1CCC1	6	-2
CSc1ccc(NC(=S)N2CC(=O)N3CCc4ccc(F)cc4C3C2)cc1 (stereo not given)	33	27
O=C(CCN1CCCCO1)NCc1cccnc1N1CCCCCCC1	-9	-7
CC(C)c1ccc(CC(=O)N2CCC2(C)C(=O)Nc2ccc3[nH]ncc3c2)cc1 (stereo not given)	2	0
COc1ccc(/C=C\C(=O)Nc2cc(-c3cccs3)nn2-c2nc(C)cc(=O)[nH]2)cc1OC	2	0
CC(C(=O)NCC(F)(F)F)N(c1ccccc1)S(=O)(=O)c1ccc(F)cc1 (stereo not given)	7	3
CC(Oc1ccccc1C(F)(F)F)C(=O)n1ncc(C#N)c1N (stereo not given)	1&4	4&9
O=S(=O)(NC1c2cccc3cccc(c23)C1Sc1ncccn1)c1ccc(Cl)cc1 (stereo not given)	8	4
C=CCn1c(=S)[nH]c2c(oc3ccccc32)c1=O	8	6
O=C(Cn1cnnn1)NC(c1ccc(Cl)cc1)C1CC1 (stereo not given)	-20	-25
O=C1NC(=S)N/C1=C/c1c(Cl)cccc1Cl	-11	-14
Cc1ccc(O)c(S(=O)(=O)NNC(=O)C23CC4CC(CC(C4)C2)C3)c1	7	3
COc1cccc(C(=O)N2C(C(=O)O)COC23CCN(C(=O)c2cccs2)CC3)c1 (stereo not given)	11	13
COC(=O)c1cc(C(=O)OC)cc(S(=O)(=O)N2CCCC2c2nc3ccccc3s2)c1 (stereo not given)	-18	-18
CC(C(O)c1ccccc1)N(C)C(=O)c1ccccc1 (stereo not given)	-4	-3
COc1cccc(-n2nnc3c(N4CCN(C(=O)c5ccc(Br)o5)CC4)ncnc32)c1	-11	-23
COc1ccc(C(=O)Nc2sc3c(c2C(N)=O)CCCC3)cc1OC	3	-3
